From PubChem BioAssay
YopH PTP inh – inhibitors of Yersinia enterocolitica YopH tyrosine phosphatase. fluorescence Ex485/Em525. inhibition, %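 (about 10 µM by stock and volumes)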. hit rate 0.16% among 140,000;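 active means inhibition of 50% or more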;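 further: controls were vehicle for no effect and minimum signal wells for full effect; inactives centre near -20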
Mtb betalactam – beta-lactam sensitization of Mtb H37Rv | M. tuberculosis H37Rv growth with meropenem, percent inhibition; hits of this screen are not shown here | hit rate 0.27% among 330,000 | inhibition, % at 25 µM;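 active means about 74% or more and at least 40 points above the plate without the antibiotic, then above 30% in a dose series; inconclusive means first-round hits that could not be retested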;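 further: growth measured after seven days incubation then overnight dye step; 0% = bacteria only wells and 100% = bacteria with antibiotic; twin plates without the antibiotic show which effects depend on it; some results filed as inactive read as strong as hits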
Arbovirus anti – arbovirus infection inhibition; arbovirus infection cell-based antiviral screen; inhibition, % at 10 µM; hit rate 0.37% among 200,000;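 active means inhibition from about 30%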;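 further: bluetongue infection of BSR cells; cell survival read as ATP light after 72 h; 0% = infected wells without compound and 100% = uninfected wells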
Mtb H37Rv – M. tuberculosis H37Rv growth inhibitors, H37Rv strain (AID 1626); inhibition, % at 10 µM; hits with a dose series show IC50 in µM; hit rate 0.95% among 220,000; M. tuberculosis H37Rv growth inhibition; higher % means a stronger effect;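 active means confirmed in a dose series; inconclusive means inhibition above 80% but not taken into the dose series; inactive means below 80% or under 30% at every dose of the series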;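 further: bacteria incubated seven days before Alamar blue readout; 0% = bacteria only wells and 100% = bacteria with antibiotic wells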
RecA intein inh – Mtb RecA intein splicing inhibition; cell-free RecA intein splicing, fluorescence; inhibition, %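 (about 9 µM by stock and volumes)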; P9WHJ3; hit rate 0.75% among 290,000; in the data active means inhibition above about 30%; inconclusive means no clear call, values can overlap the other calls;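 further: 0% = vehicle wells and 100% = reference inhibitor control wells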
Target sequence (P9WHJ3 whole entry, looked up): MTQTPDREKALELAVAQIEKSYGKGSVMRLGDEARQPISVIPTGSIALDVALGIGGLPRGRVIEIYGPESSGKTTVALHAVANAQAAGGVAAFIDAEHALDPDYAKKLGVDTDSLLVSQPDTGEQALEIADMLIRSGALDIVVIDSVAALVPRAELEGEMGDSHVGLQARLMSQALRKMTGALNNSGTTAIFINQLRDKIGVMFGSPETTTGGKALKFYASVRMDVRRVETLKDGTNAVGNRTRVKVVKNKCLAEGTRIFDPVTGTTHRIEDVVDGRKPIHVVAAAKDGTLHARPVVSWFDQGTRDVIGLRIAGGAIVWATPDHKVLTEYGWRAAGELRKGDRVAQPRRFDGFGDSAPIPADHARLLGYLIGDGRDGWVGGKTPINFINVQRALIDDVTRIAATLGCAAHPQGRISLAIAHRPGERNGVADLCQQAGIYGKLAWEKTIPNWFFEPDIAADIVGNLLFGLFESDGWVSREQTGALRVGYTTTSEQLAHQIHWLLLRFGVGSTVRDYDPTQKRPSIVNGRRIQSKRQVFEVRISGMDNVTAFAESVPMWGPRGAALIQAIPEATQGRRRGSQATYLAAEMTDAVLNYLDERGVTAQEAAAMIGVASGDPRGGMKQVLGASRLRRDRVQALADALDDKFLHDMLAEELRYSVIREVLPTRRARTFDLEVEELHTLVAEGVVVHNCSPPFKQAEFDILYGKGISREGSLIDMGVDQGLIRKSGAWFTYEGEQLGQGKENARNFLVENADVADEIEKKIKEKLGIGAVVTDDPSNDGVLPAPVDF
Arbovirus anti repeat – further read-out of Arbovirus anti, marked with its call; inhibition, %; measured here: 10K subset replicate screen; many hits read low in the repeat;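 first of two repeat runs on a subset; 0% = infected and 100% = uninfected wells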
An asterisk follows results filed as active; ? = inconclusive; · = no result given. This is a subset; count on the stated rates, not on these rows.

SMILES	YopH PTP inh	Mtb betalactam	Arbovirus anti	Mtb H37Rv	RecA intein inh	others
Cc1c(C(=O)OC(C)C)sc(NC(=O)C2CCCO2)c1C(=O)OC(C)C (stereo not drawn)	3	18	2	-3%	3.2
CCCCCC(=O)N1CC2(CC)CN(C(=O)CCCCC)CC(CC)(C1)C2=O	·	-8	·	-1%	-3.0
Cc1ccc(OCC(=O)Nc2cccnc2Cl)cc1C	·	-4	·	·	-0.2
COc1ccc2c(c1)c(C(=O)CN1CCC3(CC1)OCCO3)c(C)n2Cc1ccccc1	8	-7	12	10%	-0.7
CC(C)OC(=O)C1C(=O)CC(C)(O)C(C(=O)OC(C)C)C1c1cccc([N+](=O)[O-])c1 (stereo not drawn)	·	-2	17	-7%	-0.1
CCCCn1c(CN2CCN(c3ccc(F)cc3)CC2)nc2c1c(=O)n(C)c(=O)n2C	-25	-4	7	9%	1.1	Arbovirus anti repeat=3
COc1ccc(OCCn2cc(C=O)c3ccccc32)cc1	·	0	·	·	2.2
Cc1c(-c2ccc(Cl)cc2Cl)nc2ccccc2c1C(=O)NCCN1CCOCC1	·	6	·	·	-3.6
CCN(C(=O)c1cc2c(=O)[nH]c3ccc(C)cc3c2s1)c1ccccc1F	·	2	·	4%	-3.5
O=C(NCC1CCCO1)c1csc2c1CCCCC2 (stereo not drawn)	-37	-3	2	-2%	-2.3
CC(=O)CCC(=O)N1CCCC(CNC(=O)c2ccc(-c3ccccc3)cc2)C1 (stereo not drawn)	·	-3	-4	5%	0.0
Cc1ccccc1CNC(=O)CCCn1ncn2c(cc3occc32)c1=O	·	0	·	·	-0.7
Cc1c(NC(=O)CSc2n[nH]c(=O)n2-c2ccccc2)c(=O)n(-c2ccccc2)n1C	·	-2	5	2%	-0.4
Cc1cccc(S(=O)(=O)NCC2CCCO2)c1 (stereo not drawn)	3	4	8	4%	-3.4
COc1ccc(Cl)cc1S(=O)(=O)NC(C)C(=O)NCc1ccncc1 (stereo not drawn)	·	4	·	·	3.5
NS(=O)(=O)c1cc2c(cc1Cl)NC(CSCc1ccccc1)=NS2(=O)=O	-41	-7	10	-4%	-2.0
O=C(O)CCN1C(=O)C2C3CC(C2C1=O)C1C(c2ccccc2)c2sc(=O)[nH]c2SC31 (stereo not drawn)	·	-10	-2	4%	-2.8
COc1ccc(N2CCN(S(=O)(=O)c3ccc4c(c3)NC(=O)CS4)CC2)cc1	·	3	·	·	-3.1
c1ccc(C(c2nnnn2C2CCCC2)N2CCCCCC2)nc1 (stereo not drawn)	-39	1	8	-6%	-1.1
CCOC(=O)Cc1cc(=O)[nH]c(=O)[nH]1	·	-4	-4	7%	-0.1
CCOc1ccc(NC(=O)COC(=O)c2cccnc2)cc1	-32	-2	-2	-8%	-1.2
CCOC(=O)C1C(c2cc(OC)c(O)c(OC)c2)NC(=S)NC1(O)C(F)(F)F (stereo not drawn)	-3	1	5	0%	-5.0
Cc1nc(NC(=O)c2ccc(-c3cc4ccccc4oc3=O)cc2)ccc1Br	-22	-1	-3	-6%	-3.1
CNC(=O)C12N=CNN=C1N(C)C(=O)N2C (stereo not drawn)	·	-7	0	-11%	0.8
O=C(Nc1ccncc1)Nc1cccc(C(F)(F)F)c1	·	-4	·	·	1.5

Molecules listed so far that have an aryl methoxy group:
SMILES	YopH PTP inh	Mtb betalactam	Arbovirus anti	Mtb H37Rv	RecA intein inh	others
COc1ccc2c(c1)c(C(=O)CN1CCC3(CC1)OCCO3)c(C)n2Cc1ccccc1	8	-7	12	10%	-0.7
COc1ccc(OCCn2cc(C=O)c3ccccc32)cc1	·	0	·	·	2.2
COc1ccc(Cl)cc1S(=O)(=O)NC(C)C(=O)NCc1ccncc1 (stereo not drawn)	·	4	·	·	3.5
COc1ccc(N2CCN(S(=O)(=O)c3ccc4c(c3)NC(=O)CS4)CC2)cc1	·	3	·	·	-3.1
CCOC(=O)C1C(c2cc(OC)c(O)c(OC)c2)NC(=S)NC1(O)C(F)(F)F (stereo not drawn)	-3	1	5	0%	-5.0

Other structures.
SMILES	YopH PTP inh	Mtb betalactam	Arbovirus anti	Mtb H37Rv	RecA intein inh	others
c1ccc2c(-c3nnc4n3CCCCC4)c[nH]c2c1	-45	0	3	2%	-0.4
CC(C)N1C(=S)SC2CS(=O)(=O)C=C21 (stereo not drawn)	-24	2	-2	1%	-2.3
Cc1nnc(N/N=C/c2cc(C)n(-c3ccc(F)cc3)c2C)n1N	15	59	-20	29%	-5.6
CCN1CCN(C(CNS(=O)(=O)c2cccs2)c2cccnc2)CC1 (stereo not drawn)	·	6	·	-2%	0.1
Cc1ccc(OCc2cc(C(=O)N3CCc4[nH]cnc4C3c3ccccn3)no2)cc1C (stereo not drawn)	·	65	·	·	-2.1
COc1ccc(N=C/C=C2/C=C(c3ccccc3)OC(C)(C)O2)cc1	·	95	4	63µM*	-23
CCOC(=O)c1[nH]ncc1CN1CCCC(C(=O)c2ccc(OC)c(OC)c2)C1 (stereo not drawn)	·	-2	2	-6%	0.1
Cc1ccccc1OCc1nc(-c2ccc(NC(=O)c3ccc4c(c3)OCO4)cc2)no1	-50	19	-24	11%	3.9
CCOc1ccccc1-c1nc(-c2ccc(C)nc2OC)no1	-9	?	3	5%	-2.9
COc1ccc(Oc2cnc3ccccc3n2)cc1	·	-5	9	2%	-1.3
COC(=O)COn1c(-n2nc(C)cc2C)nc2ccccc2c1=O	0	92	-10	?	0.4
Cc1cccc(NC(=O)c2cccnc2Cl)n1	·	-8	·	·	2.2
O=C(CC1NC2CCCCC2NC1=O)Nc1ccc2c(c1)OCO2 (stereo not drawn)	-26	-1	2	-1%	-4.4
COc1ccc(-c2c3c([nH]c(=S)c2C#N)CCC3)cc1	-29	·	3	6%	·
CCC(=O)NC(=S)Nc1ccccc1C(=O)OC	-7	-9	5	-1%	0.0
CCOC(=O)C1(CCSC)NC(c2ccco2)C2C(=O)N(CC)C(=O)C21 (stereo not drawn)	-26	-13	0	-3%	-2.8
O=C1[C@H]2[C@H](ON3CCCC[C@H]23)C(=O)N1c1ccc(Cl)cc1	·	-3	-3	0%	-0.3
c1coc(CNC2CCCCCCC2)c1	-13	3	-2	-11%	2.1
COc1ccc(CN2CCN(Cc3ccc(C)cc3)C(CCO)C2)cc1OC (stereo not drawn)	·	-5	2	1%	-0.6
COc1ccc(N(CC(=O)NCCc2ccccc2)C(=O)CCC(=O)Nc2nccs2)c(OC)c1	·	-3	·	·	-0.9
COc1ccc(CN(C)S(=O)(=O)c2nnc(NC(=O)c3cccc(F)c3)s2)cc1OC	·	-3	·	·	-4.0
CCN(CC)C(=O)CSc1nnc(CNc2ccc(F)cc2)n1-c1ccccc1	-9	-4	10	6%	·
CCCNc1nc(C)cc(-c2cc(C(=O)Nc3ccccc3)on2)n1	·	-2	·	4%	-1.6
O=C(CN1CCCC1)N1CCN(c2ccccc2)CC1	·	-4	2	-4%	1.2
O=C(CCN1C(=O)C2C3C=CC(C3)C2C1=O)Nc1c(F)cccc1F (stereo not drawn)	-42	-2	-1	-13%	-0.8
(list continues)
SMILES	YopH PTP inh	Mtb betalactam	Arbovirus anti	Mtb H37Rv	RecA intein inh	others
CCC(C)[C@H](NC(=O)NCc1ccc(S(N)(=O)=O)cc1)C(=O)O (stereo partly drawn)	·	-5	·	-2%	0.2
CCSc1nnc(NC(=O)C2CCCCC2C(=O)O)s1 (stereo not drawn)	-25	3	11	-8%	-2.4
CC1CCC(C(C)C)C(OC(=O)Cn2nnc3c(cnn3-c3ccccc3)c2=O)C1 (stereo not drawn)	·	4	·	2%	6.2
Cc1ccc(N/C(N)=N/c2nc(CSc3ccc(C)cc3)cc(=O)[nH]2)cc1	-37	·	-2	·	·
O=C(Nc1nc2ccc(F)cc2s1)c1ccccn1	·	94	-26	<0.2µM*	-1.9
CN(C)S(=O)(=O)c1ccc(N2CCCC2)c(C(=O)Nc2nc(-c3ccc(F)c(F)c3)cs2)c1	-15	-2	-8	9%	1.0
COc1cc(OC)cc(C(=O)N[C@H](C(=O)Nc2nc(-c3cc(OC)ccc3OC)cs2)C(C)C)c1	·	1	-8	6%	-1.4
Cc1c(O)c2ccccc2oc1=O	·	-1	·	0%	-0.1
CS(=O)(=O)c1ccc2nc(NC(=O)C3CCCCC3)sc2c1	-33	7	12	-4%	-6.7	Arbovirus anti repeat=5
CCOC(=O)CN1C(=O)C(=O)N(Cc2c(Cl)cccc2Cl)C1=O	·	-7	·	·	-0.3
CCOC(=O)CC(=O)CSc1ncnc2c1nnn2-c1ccccc1	·	5	·	·	6.3
CCC(CC)C(=O)NCCCN1CCOCC1	-14	1	6	5%	2.3
S=C(NCCc1ccccc1)NCC(c1ccco1)N1CCCCC1 (stereo not drawn)	·	-1	25	2%	1.1
O=S(=O)(NCc1cccnc1)c1ccc(Br)s1	-48	0	3	-2%	0.7
CCC(=O)Nc1nnc(S(=O)(=O)N(C)c2cc(C)cc(C)c2)s1	·	2	·	·	1.8
O=C(CCCc1nc2ccccc2s1)NCc1ccc(F)cc1	-31	1	4	11%	0.3
CCOc1ccc(N(CC(=O)NC2CCCCC2)C(=O)CCC(=O)Nc2cc(C)ccn2)cc1	·	6	·	·	1.5
O=C(c1ccncc1)c1ccc([N+](=O)[O-])cc1	·	-2	1	0%	-0.6
COc1ccc(OC)c2sc(Cl)nc12	·	-5	-1	1%	0.5
Cc1ccc(OCC(O)Cn2c(NCCc3ccccc3)nc3c2c(=O)[nH]c(=O)n3C)cc1 (stereo not drawn)	1	2	-3	4%	0.4
O=C(CN1CCOCC1)Nc1ccccc1C(=O)O	-23	-7	7	0%	0.5
Cc1cccc(NCCC(=O)c2ccc([N+](=O)[O-])cc2)c1C	·	100	5	?	-0.7
Cc1ccc(-c2cnn(-c3ccccc3)c2N)cc1	·	-6	·	·	0.6
O=C(NCc1cccnc1)C1CCCN(S(=O)(=O)c2ccc(Br)cc2)C1 (stereo not drawn)	-95	2	5	1%	0.3
COc1cc(C(=S)N2CCOCC2)cc(OC)c1OS(=O)(=O)c1ccc(Cl)cc1	·	3	·	·	-4.4

Among those listed so far, these have an NH in an aromatic ring:
SMILES	YopH PTP inh	Mtb betalactam	Arbovirus anti	Mtb H37Rv	RecA intein inh	others
CCN(C(=O)c1cc2c(=O)[nH]c3ccc(C)cc3c2s1)c1ccccc1F	·	2	·	4%	-3.5
Cc1c(NC(=O)CSc2n[nH]c(=O)n2-c2ccccc2)c(=O)n(-c2ccccc2)n1C	·	-2	5	2%	-0.4
O=C(O)CCN1C(=O)C2C3CC(C2C1=O)C1C(c2ccccc2)c2sc(=O)[nH]c2SC31 (stereo not drawn)	·	-10	-2	4%	-2.8
CCOC(=O)Cc1cc(=O)[nH]c(=O)[nH]1	·	-4	-4	7%	-0.1
c1ccc2c(-c3nnc4n3CCCCC4)c[nH]c2c1	-45	0	3	2%	-0.4
Cc1ccc(OCc2cc(C(=O)N3CCc4[nH]cnc4C3c3ccccn3)no2)cc1C (stereo not drawn)	·	65	·	·	-2.1
CCOC(=O)c1[nH]ncc1CN1CCCC(C(=O)c2ccc(OC)c(OC)c2)C1 (stereo not drawn)	·	-2	2	-6%	0.1
COc1ccc(-c2c3c([nH]c(=S)c2C#N)CCC3)cc1	-29	·	3	6%	·
Cc1ccc(N/C(N)=N/c2nc(CSc3ccc(C)cc3)cc(=O)[nH]2)cc1	-37	·	-2	·	·
Cc1ccc(OCC(O)Cn2c(NCCc3ccccc3)nc3c2c(=O)[nH]c(=O)n3C)cc1 (stereo not drawn)	1	2	-3	4%	0.4

Next compounds.
SMILES	YopH PTP inh	Mtb betalactam	Arbovirus anti	Mtb H37Rv	RecA intein inh	others
CCC(C)c1ccc(NC(=O)Nc2cnccn2)cc1 (stereo not drawn)	·	7	·	·	3.2
S=C(Nc1ccc(N2CCOCC2)cc1)Nc1ccc2snnc2c1	·	91	10	33%	-0.6
CCOC(=O)c1sc(NC(=O)CSc2ncccn2)nc1C	·	-22	·	·	-2.1
COc1cc2c(cc1OC)C(C(=O)Nc1cccc(C)n1)C(c1cccnc1)N(C)C2=O (stereo not drawn)	-24	2	1	-1%	·	Arbovirus anti repeat=10
COc1ccc(NC(=O)Cc2coc3cc(C)ccc23)cn1	·	-7	2	6%	2.3
CCC(C)(C)n1nnnc1C(c1cc(OC)c(OC)c(OC)c1)N1CCN(c2ccccc2)CC1 (stereo not drawn)	-26	-4	2	-6%	1.0
COc1cc(OC)cc(C2C(C#N)=C(N)Oc3n[nH]c(-c4cccnc4)c32)c1 (stereo not drawn)	-17	1	-3	2%	50*
Cc1cc(C)nc(NC2=NCC(=O)N2c2ccccc2)n1	-23	-3	0	3%	-1.9
CCOc1ccc(C(=O)NC(Cc2ccccc2)C(=O)OC)cc1 (stereo not drawn)	-34	-10	5	-5%	5.2
NS(=O)(=O)c1ccc(NC(=O)COC(=O)c2cnccn2)cc1	·	-13	6	-1%	6.7
COc1ccccc1C(=O)N1CCN(C(=O)Cc2ccccc2)CC1	·	-2	·	·	-0.5
CN1CCN(CCCNC(=O)C2CC(=O)N(C3CCCCC3)C2)CC1 (stereo not drawn)	-4	-4	3	-1%	0.9
